Source: PubChem BioAssay (Vanderbilt University)
GIRK2 act: activators of human GIRK2 potassium channels; P48051; hit rate 0.05% among 63,000; AID 1259325; calls only for hits at 25 µM; HEK293-GIRK2 thallium flux, Thallos fluorescence;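 active = among the strongest 0.2% of first-round signals and kept after retests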;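 note: first round at about 10 µM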
Target sequence (P48051 whole entry, looked up): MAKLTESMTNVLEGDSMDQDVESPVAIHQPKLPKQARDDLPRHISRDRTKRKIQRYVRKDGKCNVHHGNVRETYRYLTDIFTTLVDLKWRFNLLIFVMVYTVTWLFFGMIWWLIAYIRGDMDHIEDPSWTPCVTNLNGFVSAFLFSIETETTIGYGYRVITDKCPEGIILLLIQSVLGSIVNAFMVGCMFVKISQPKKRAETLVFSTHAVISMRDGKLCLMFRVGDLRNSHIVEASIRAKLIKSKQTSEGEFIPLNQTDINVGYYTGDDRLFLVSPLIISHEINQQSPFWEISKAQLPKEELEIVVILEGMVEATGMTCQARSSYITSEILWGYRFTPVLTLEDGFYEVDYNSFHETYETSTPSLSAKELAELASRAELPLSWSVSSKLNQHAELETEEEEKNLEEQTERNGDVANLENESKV
Calls only. Only part of the results is shown, so the mix of outcomes need not match the whole.

`O=C(CSc1nccnc1N1CCN(c2ccccc2)CC1)Nc1ccc(Cl)cc1` gave GIRK2 act inactive.
O=C(Cn1c(=O)oc2ccccc21)Nc1sccc1-c1nc2ccccc2s1 was read as GIRK2 act inactive.
`COc1ccc(C(=O)Nc2cccc(Cl)c2)cc1` gave GIRK2 act inactive.
For COc1nn(C)cc1C(=O)Nc1nnc(-c2csc(C)n2)o1 the results were GIRK2 act inactive.
COc1ccc(S(=O)(=O)NCCNC(=O)c2ccc(NC(C)=O)cc2)c(OC)c1 was read as GIRK2 act inactive.
Screening COc1ccc(-n2ccnc(NCc3ccc4c(c3)OCO4)c2=O)cc1Cl returned GIRK2 act inactive.
CN(C)c1cccc(C(=O)NCC2(O)CCc3ccccc3C2)c1 (stereo not given) was read as GIRK2 act inactive.
Screening O=C(Nc1nc2c(s1)CN(C(=O)Cn1cnc3ccccc3c1=O)CC2)C1CCCO1 (stereo not given) returned GIRK2 act inactive.
For O=C(CSc1nc2ccccc2c(=O)n1Cc1cccs1)Nc1ncn[nH]1 the results were GIRK2 act inactive.
`COc1cccc(COc2coc(C(=O)NCc3cccs3)cc2=O)c1` gave GIRK2 act inactive.
Cc1ccc(-c2noc(-c3ccc(-n4nncc4C)cc3)n2)cc1 was read as GIRK2 act inactive.
`COc1cccc(/C=C2/CCn3c2nc(=O)c2ccccc23)c1OC` gave GIRK2 act inactive.
COc1ccccc1C(O)Cn1cc(C(=O)N2CCN(C(=O)OC(C)(C)C)CC2)nn1 (stereo not given) was read as GIRK2 act inactive.
`COc1c(-c2ccccc2)oc2c3c(ccc2c1=O)OC(C)(C)C=C3` gave GIRK2 act inactive.
`CC(C)(C)c1ccc(S(=O)(=O)Nc2ccc(C(=O)N3CCCC3)cc2)cc1` gave GIRK2 act inactive.
Screening COC(=O)c1ccc2nc(NC(=O)Nc3cccs3)sc2c1 returned GIRK2 act inactive.
For O=C(/C=C\c1cccnc1)N1CCN(c2cc(-c3ccccc3)ncn2)CC1 the results were GIRK2 act inactive.
For Cc1cc(=O)[nH]c(-n2nc(-c3cccs3)cc2NC(=O)C2CCCCC2)n1 the results were GIRK2 act inactive.
For COc1cc(Cl)c(C)cc1NC(=O)Cn1[nH]c(-c2ccc(F)cc2)cc1=O the results were GIRK2 act inactive.
For Cc1ccc(-n2nnc(C(=O)NCC(C)O)n2)cc1 (stereo not given) the results were GIRK2 act inactive.
`Cc1ccccc1OCC(=O)NCc1cc(-c2ccco2)n(C)n1` gave GIRK2 act inactive.
`COc1ccc(C(=O)N2CCOCC2CN(C)CCO)c(OC)c1` (stereo not given) gave GIRK2 act inactive.
`CSCC(C)(O)CNC(=O)c1ccc(S(=O)(=O)N2CCCC2)cc1` (stereo not given) gave GIRK2 act inactive.
Screening Cc1noc(C)c1CN1CCN(C(=O)C(C)(C)Oc2ccc(Cl)cc2)CC1 returned GIRK2 act inactive.
COC(=O)c1ccc2c(=O)n(Cc3ccc(F)cc3)c(N3CCC(C(N)=O)CC3)nc2c1 was read as GIRK2 act inactive.
`CCOc1ccccc1C(=O)Nc1ccc2oc(=O)ccc2c1` gave GIRK2 act inactive.
Screening Cc1csc(CN2CCN(C(=O)CC(c3ccccc3)c3ccccc3)CC2)n1 returned GIRK2 act inactive.
For O=C(c1ccco1)N1CC(Oc2nc3ccccc3s2)C1 the results were GIRK2 act inactive.
`Cc1ccc2nc(C3CN(Cc4ccccc4)C3)[nH]c2c1` gave GIRK2 act inactive.
For O=C(CCn1ccc(=O)[nH]c1=O)N1CCC(Oc2ccc(C(F)(F)F)cn2)CC1 the results were GIRK2 act inactive.
Screening COc1ccc(C)cc1NC(=O)Cn1cnc2c(sc3nc(C)cc(C)c32)c1=O returned GIRK2 act inactive.
For CC(C)c1cc(=O)[nH]c(-n2nc(-c3cccs3)cc2NC(=O)c2ccc(F)c(F)c2)n1 the results were GIRK2 act inactive.
Screening Cc1cc2oc(=O)cc(Cn3ccnc3)c2cc1C returned GIRK2 act inactive.
CCOc1ccc2ccccc2c1C(=O)Nc1ccc(OC)c(N2CCCC2=O)c1 was read as GIRK2 act inactive.
Screening O=C(NCC1CCN(c2ccccn2)CC1)c1ccc(Cl)s1 returned GIRK2 act inactive.
Screening Cc1ccc(C(=O)Nc2ccc(S(=O)(=O)c3ccccc3)cc2)cc1S(=O)(=O)N1CCCCC1 returned GIRK2 act inactive.
Cc1cc(C(O)CCNC(=O)CCCc2ccccc2)c(C)o1 (stereo not given) was read as GIRK2 act inactive.
COc1ccc(CC(C)(O)CNC(=O)c2cc3cccc(OC)c3o2)cc1 (stereo not given) was read as GIRK2 act inactive.
For CC(=O)Nc1ccc(C(=O)Nc2ccccc2N)cc1 the results were GIRK2 act inactive.
Screening CC(=O)c1cccc(NC(=O)Cn2cc(-c3nc(-c4ccc(C)cc4)no3)ccc2=O)c1 returned GIRK2 act inactive.
For CC(=O)Nc1ccc2c(c1)CC(=O)N2 the results were GIRK2 act inactive.
For COc1cc(C(=O)N2CCCC(c3nnc(C)s3)C2)cc(OC)c1OC (stereo not given) the results were GIRK2 act inactive.
For COc1ccc(-n2c(=O)c3ccccc3n(CC(=O)NC3CCCCC3)c2=O)cc1 the results were GIRK2 act inactive.
For O=C(NCC#CCOc1cccc(C(F)(F)F)c1)NCc1cccs1 the results were GIRK2 act inactive.
`CC(C)NC(=O)C1CCC(Cn2c(=O)c3sccc3n(Cc3ccc(C#N)cc3)c2=O)CC1` (stereo not given) gave GIRK2 act inactive.
O=C(Cn1nc(-c2ccccc2)ccc1=O)Nc1ccc2c(c1)OCCO2 was read as GIRK2 act inactive.
`Cn1nc(-c2ccc(F)cc2)cc1C(=O)NCCn1nc(C2CC2)n(-c2ccccc2)c1=O` gave GIRK2 act inactive.
CC(=O)NC(CSC/C=C(\C)CC/C=C(\C)CC/C=C(\C)CCC=C(C)C)C(=O)O (stereo not given) was read as GIRK2 act inactive.
Screening COc1ccccc1-n1ncc2c(C)nnc(SCC(=O)NCc3ccccc3Cl)c21 returned GIRK2 act inactive.
For COc1ccc(C)c2sc(N3CCN(C(=O)Cn4c(=O)oc5ccccc54)CC3)nc12 the results were GIRK2 act inactive.
COc1ccc(-c2ccc(=O)n(CCNS(=O)(=O)c3ccc(OC)cc3OC)n2)cc1 was read as GIRK2 act inactive.
For O=C(Cn1nc2c(=O)n(-c3ccc(Br)cc3)ccn2c1=O)Nc1ccc(F)cc1F the results were GIRK2 act inactive.
Screening O=C(Cn1cc(S(=O)(=O)c2ccccc2)c(=O)c2cc(F)ccc21)Nc1ccccc1 returned GIRK2 act inactive.
CCOc1ccc(N2CCCn3c2nc2c3c(=O)n(CC(=O)O)c(=O)n2C)cc1 was read as GIRK2 act inactive.
Screening O=S(=O)(c1ccccc1F)N(CCc1cccs1)Cc1ccoc1 returned GIRK2 act inactive.
Screening CN1CCN(NC(=O)CN2CCN(c3cccc(Cl)c3)C2=O)CC1 returned GIRK2 act inactive.
Nc1c(C(=O)NCc2ccccc2)c2nc3ccccc3nc2n1/N=C\c1ccco1 was read as GIRK2 act inactive.
For CCN(CC)CCN1C(=O)C(O)=C(C(=O)c2sc(C)nc2C)C1c1ccncc1 (stereo not given) the results were GIRK2 act inactive.
`O=C(Nc1cccc2ccc(-n3ccnc3)nc12)C1(c2ccccc2)CCOCC1` gave GIRK2 act inactive.
For COc1cccc(CNC(=O)C2CCN(c3ncnc4c3sc3ncccc34)CC2)c1 the results were GIRK2 act inactive.
`Cn1c(O)c(N=Nc2nc3c(c(=O)n(Cc4ccccc4)c(=O)n3C)n2C)c(=O)n(C)c1=O` gave GIRK2 act inactive.
CCC(C)[C@@H]1NC(=O)[C@@H](C(C)CC)NC(=O)[C@H](C(C)C)NC(=O)[C@H]2CSSC[C@@H](NC1=O)C(=O)N2 (stereo not given in full) was read as GIRK2 act inactive.
`CCCCS(=O)(=O)N1CCCC(c2nnc(Cc3ccccc3)s2)C1` (stereo not given) gave GIRK2 act inactive.
Screening COc1cccc(OCC(=O)NCCC(O)C2CC2)c1 (stereo not given) returned GIRK2 act inactive.
Cc1noc(CNC(=O)CCCN2C(=O)c3ccccc3C2=O)n1 was read as GIRK2 act inactive.
For COc1ccc(NC(=O)CSc2ncc(S(=O)(=O)c3ccc(Cl)cc3)c(=O)[nH]2)cc1 the results were GIRK2 act inactive.
For O=C(Nc1cccc(C(F)(F)F)c1)N1CCN(c2ccc(Nc3cccnc3)nn2)CC1 the results were GIRK2 act inactive.
`Cn1nnn(-c2ccc(NS(=O)(=O)c3ccc4c(c3)OCCO4)cc2)c1=O` gave GIRK2 act inactive.
O=C(CSc1nc2ccccc2c(=O)n1NC(=O)Cc1ccccc1)NCCc1ccccc1 was read as GIRK2 act inactive.
`CCOc1ccc(-c2ccc(=O)n(CCNS(=O)(=O)c3cc(F)ccc3F)n2)cc1` gave GIRK2 act inactive.
`CCc1ccc(NC(=O)CSc2nc3c4cc(OC)ccc4n(C)c3c(=O)n2CC)cc1` gave GIRK2 act inactive.
Screening COc1ccc(C2CCN(C(=O)NCc3ccc(Cl)cc3)C2)cc1 (stereo not given) returned GIRK2 act inactive.
Screening Cc1csc(-c2nnc(NC(=O)CSCc3ccccc3)o2)c1 returned GIRK2 act inactive.
For O=C(c1ccc2c(c1)OCO2)N1CCN(S(=O)(=O)N2CCOCC2)CC1 the results were GIRK2 act inactive.
COc1ccc(S(=O)(=O)NCC(c2ccsc2)N2CCc3ccccc3C2)cc1OC (stereo not given) was read as GIRK2 act inactive.
`CCS(=O)(=O)NCC1CCC(C(=O)Nc2ccc3c(c2)OCCO3)CC1` (stereo not given) gave GIRK2 act inactive.
For O=C1C2N=NN(Cc3nc(-c4cccc(Cl)c4)no3)C2C(=O)N1c1ccc(F)cc1 (stereo not given) the results were GIRK2 act inactive.
For O=S(=O)(NCC1(CO)CC1)c1cccc(Cl)c1 the results were GIRK2 act inactive.
`CCOc1ccc(/C=C/c2nc(C#N)c(N3CCN(C(=O)c4ccccc4C)CC3)o2)cc1` gave GIRK2 act inactive.
Screening O=C(NCC(F)(F)F)C1CCN(C(=O)NCc2ccccc2)CC1 returned GIRK2 act inactive.
`COc1cccc(NC(=O)COc2nc(C)nc3ccccc23)c1` gave GIRK2 act inactive.
Screening O=C(NCC1(O)CCc2ccccc2C1)c1ccccc1F (stereo not given) returned GIRK2 act inactive.
For Cc1cc(=S)nc[nH]1 the results were GIRK2 act inactive.
For CC(C)(Oc1ccc(Cl)cc1)C(=O)NCCC(O)c1ccc2c(c1)OCO2 (stereo not given) the results were GIRK2 act inactive.
Screening CCCN1C(=O)C(C)(C)COc2cc(NC(=O)NCc3ccc(F)cc3)ccc21 returned GIRK2 act inactive.
For NS(=O)(=O)c1ccc(N=Cc2c(O)[nH]c3ccc4ncsc4c23)cc1 the results were GIRK2 act inactive.
Screening CCOC(=O)c1ccc(NC(=O)CN2C(=O)C(CC)SC(CC)C2=O)cc1 (stereo not given) returned GIRK2 act inactive.
`COc1cc(C)c(S(=O)(=O)N2CCN(c3cccc(C(F)(F)F)c3)CC2)cc1C` gave GIRK2 act inactive.
CS(=O)(=O)N1CCN(CCNC(=O)NCc2cccc3ccccc23)CC1 was read as GIRK2 act inactive.
Screening CC(C)c1nccn1CC1CCN(C(=O)Cn2c(=O)oc3ccccc32)CC1 returned GIRK2 act inactive.
For Cc1noc(-c2cccnc2N2CCC(NC(=O)C3CCCO3)C2)n1 (stereo not given) the results were GIRK2 act inactive.
`COc1cc2c(cc1OC)CN(C(=O)CCl)CC2` gave GIRK2 act inactive.
Screening N#C/C(C(N)=O)=C1/SCC(=O)N1c1ccccc1 returned GIRK2 act inactive.
Screening CCOC(=O)c1cccc(NC(=O)CSC2=NNC3C4CC(c5ccc(F)cc5)NN4C=CN23)c1 (stereo not given) returned GIRK2 act inactive.
`O=C(CSc1ccc(F)cc1)Nc1nnc(C2CC(=O)N(c3ccccc3)C2)o1` (stereo not given) gave GIRK2 act inactive.
CCc1nc(-c2ccc(N3CCN(C(=O)/C=C/c4ccco4)CC3)nc2)no1 was read as GIRK2 act inactive.
`O=C(Cc1c(F)cccc1Cl)N1CCN(C(=O)C2CC2c2ccc3c(c2)OCO3)CC1` (stereo not given) gave GIRK2 act inactive.

Nothing new here: an excerpt of the list.
`CCOc1ccc(/C=C/c2nc(C#N)c(N3CCN(C(=O)c4ccccc4C)CC3)o2)cc1` gave GIRK2 act inactive.
Screening O=C(NCC(F)(F)F)C1CCN(C(=O)NCc2ccccc2)CC1 returned GIRK2 act inactive.
`COc1cccc(NC(=O)COc2nc(C)nc3ccccc23)c1` gave GIRK2 act inactive.
Screening O=C(NCC1(O)CCc2ccccc2C1)c1ccccc1F (stereo not given) returned GIRK2 act inactive.
For Cc1cc(=S)nc[nH]1 the results were GIRK2 act inactive.
For CC(C)(Oc1ccc(Cl)cc1)C(=O)NCCC(O)c1ccc2c(c1)OCO2 (stereo not given) the results were GIRK2 act inactive.
Screening CCCN1C(=O)C(C)(C)COc2cc(NC(=O)NCc3ccc(F)cc3)ccc21 returned GIRK2 act inactive.
For NS(=O)(=O)c1ccc(N=Cc2c(O)[nH]c3ccc4ncsc4c23)cc1 the results were GIRK2 act inactive.
Screening CCOC(=O)c1ccc(NC(=O)CN2C(=O)C(CC)SC(CC)C2=O)cc1 (stereo not given) returned GIRK2 act inactive.
`COc1cc(C)c(S(=O)(=O)N2CCN(c3cccc(C(F)(F)F)c3)CC2)cc1C` gave GIRK2 act inactive.
CS(=O)(=O)N1CCN(CCNC(=O)NCc2cccc3ccccc23)CC1 was read as GIRK2 act inactive.
Screening CC(C)c1nccn1CC1CCN(C(=O)Cn2c(=O)oc3ccccc32)CC1 returned GIRK2 act inactive.
For Cc1noc(-c2cccnc2N2CCC(NC(=O)C3CCCO3)C2)n1 (stereo not given) the results were GIRK2 act inactive.
`COc1cc2c(cc1OC)CN(C(=O)CCl)CC2` gave GIRK2 act inactive.
Screening N#C/C(C(N)=O)=C1/SCC(=O)N1c1ccccc1 returned GIRK2 act inactive.
Screening CCOC(=O)c1cccc(NC(=O)CSC2=NNC3C4CC(c5ccc(F)cc5)NN4C=CN23)c1 (stereo not given) returned GIRK2 act inactive.
`O=C(CSc1ccc(F)cc1)Nc1nnc(C2CC(=O)N(c3ccccc3)C2)o1` (stereo not given) gave GIRK2 act inactive.
CCc1nc(-c2ccc(N3CCN(C(=O)/C=C/c4ccco4)CC3)nc2)no1 was read as GIRK2 act inactive.
`O=C(Cc1c(F)cccc1Cl)N1CCN(C(=O)C2CC2c2ccc3c(c2)OCO3)CC1` (stereo not given) gave GIRK2 act inactive.
